High-throughput results (PubChem BioAssay)
AF4-AF9 inh = blocks AF4 peptide binding to human AF9; P42568; AlphaScreen, biotin-AF4 peptide binding to FLAG-AF9; inhibition, % at 10 µM; 0.47% of 350,000 active; AID 651704;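 active = every replicate reaching a set inhibition limit, whatever the replicate mean, cut at about 25% in these data; inconclusive = mean inhibition reaches that limit but some replicates miss it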;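 also: 0% = plate neutral control median and 100% = total signal loss; the record names both 10 and 1 µM as test concentration; the first replicate is given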
Calb FLC = C. albicans growth modulation with fluconazole | C. albicans CaCi-2 (fluconazole-resistant clinical isolate) + fluconazole, Alamar Blue growth, 48 h | growth inhibition, % (test concentration not listed) | 0.57% of 300,000 active | AID 1979;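 active = most replicates above 75%; inconclusive = exactly half above 75%; inactive = most below 75%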;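 also: all wells also contain fluconazole at 8 µg/ml as a sub-toxic cotreatment; 0% = median of DMSO wells and 100% = median of geldanamycin control wells; wells of about 8 µL received 7.5 nL stock; the first replicate is given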
Vif A3G = HIV-1 Vif–A3G interaction blockers – biochemical, TR-FRET, GST-Vif 1-94, biotin-A3G peptide, dose response retest, primary screen (AID 1117319). TR-FRET GST-Vif / biotin-A3G peptide binding; higher % means a stronger effect; test concentration not given here; strong numbers were not always called active. 0.57% of 260,000 active. inhibition, %, or IC50 in µM where a hit was titrated;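 active = above the screen mean plus three standard deviations and confirmed in dose response; inconclusive = results disagree or hit not tested in dose response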;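 also: Vif residues 1-94 fused to GST binding biotinylated APOBEC3G peptide 110-148; 0% = full assay without inhibitor and 100% = GST in place of GST-Vif; retest series ran down from 100 µM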
T cruzi repl = T. cruzi replication inhibition | T. cruzi beta-gal in NIH3T3, luminescence, 90 h | inhibition, % (test concentration not listed) | 1.4% of 300,000 active | AID 1885;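 active = mean inhibition across valid replicates above about 55%, limit read from the data; inconclusive = mean below that limit but half or more replicates reach it; inactive = mean below it, under half of replicates reach it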;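 also: signal also drops with host cell toxicity which is not excluded here; 0% = plate median of DMSO wells and 100% = zero luminescence signal; higher percent means less beta-gal luminescence so fewer parasites; stock transfer was 50 nL into about 50 µL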
RanGTP-Imp inh = inhibitors of RanGTP-importin-beta interaction, primary screen, biochemical, FRET, CFP-Ran, YFP-importin-beta, homogeneous; cell-free CFP-Ran/YFP-importin-beta FRET ratio; inhibition, % (test concentration not listed); 1.1% of 300,000 active; AID 2216;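 active = most replicates above 15%; inconclusive = exactly half above 15%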;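 also: 0% = DMSO wells and 100% = Ran loaded with GDP instead of GTP; wells of about 40 µL received 100 nL stock; the first replicate is given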
Beta cell apopt = blocks beta cell apoptosis; INS-1E cytokine-induced death, ATP luminescence, 48 h; percent of positive-control rescue, neutral wells zero; protection from apoptosis, % (test concentration not listed); 0.8% of 300,000 active; AID 435005;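 active = all replicates at 75% or more, or half of them and the mean; inconclusive = half reach 75% but not the mean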;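 also: 0% = cytokine-treated negative control wells and 100% = positive control rescue; higher means more ATP so stronger rescue from cytokine killing; wells of about 40 µL received 100 nL stock; the first replicate is given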
Bfl-1 A1 inh = inhibitors of the anti-apoptotic protein A1, read as caspase activation; MEF A1-2A-BIM cells, Caspase-Glo 3/7 luminescence, 3 h; percent of clofoctol response, vehicle zero; caspase activation, % (concentration not given with the values); 0.066% of 330,000 active; AID 2462;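 active = over half of replicate activation scores above 10%, or exactly half above 10 with the replicate mean above 10; inconclusive = replicate mean below 10 yet half the replicates above 10; inactive = over half of replicates below 10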;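 also: wells of about 30 µL received 50 nL stock; many hits fall short of the cut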
LANA-H2B inh = blocks KSHV LANA binding to histone H2A/H2B. cell-free LANA-H2A/H2B peptide, fluorescence polarization. inhibition, % (test concentration not listed). 0.6% of 320,000 active. AID 2629; in the data active = inhibition mostly above about 10%, no sharp cut-off; inactive = mostly below about 6.7%;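 also: stock transfer was 7.5 nL into about 10 µL; 0% = median of vehicle wells and 100% = median of positive control wells; one replicate is shown; the record names a cut of 25% in any replicate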
Target sequence (Q9QR71 whole entry, looked up): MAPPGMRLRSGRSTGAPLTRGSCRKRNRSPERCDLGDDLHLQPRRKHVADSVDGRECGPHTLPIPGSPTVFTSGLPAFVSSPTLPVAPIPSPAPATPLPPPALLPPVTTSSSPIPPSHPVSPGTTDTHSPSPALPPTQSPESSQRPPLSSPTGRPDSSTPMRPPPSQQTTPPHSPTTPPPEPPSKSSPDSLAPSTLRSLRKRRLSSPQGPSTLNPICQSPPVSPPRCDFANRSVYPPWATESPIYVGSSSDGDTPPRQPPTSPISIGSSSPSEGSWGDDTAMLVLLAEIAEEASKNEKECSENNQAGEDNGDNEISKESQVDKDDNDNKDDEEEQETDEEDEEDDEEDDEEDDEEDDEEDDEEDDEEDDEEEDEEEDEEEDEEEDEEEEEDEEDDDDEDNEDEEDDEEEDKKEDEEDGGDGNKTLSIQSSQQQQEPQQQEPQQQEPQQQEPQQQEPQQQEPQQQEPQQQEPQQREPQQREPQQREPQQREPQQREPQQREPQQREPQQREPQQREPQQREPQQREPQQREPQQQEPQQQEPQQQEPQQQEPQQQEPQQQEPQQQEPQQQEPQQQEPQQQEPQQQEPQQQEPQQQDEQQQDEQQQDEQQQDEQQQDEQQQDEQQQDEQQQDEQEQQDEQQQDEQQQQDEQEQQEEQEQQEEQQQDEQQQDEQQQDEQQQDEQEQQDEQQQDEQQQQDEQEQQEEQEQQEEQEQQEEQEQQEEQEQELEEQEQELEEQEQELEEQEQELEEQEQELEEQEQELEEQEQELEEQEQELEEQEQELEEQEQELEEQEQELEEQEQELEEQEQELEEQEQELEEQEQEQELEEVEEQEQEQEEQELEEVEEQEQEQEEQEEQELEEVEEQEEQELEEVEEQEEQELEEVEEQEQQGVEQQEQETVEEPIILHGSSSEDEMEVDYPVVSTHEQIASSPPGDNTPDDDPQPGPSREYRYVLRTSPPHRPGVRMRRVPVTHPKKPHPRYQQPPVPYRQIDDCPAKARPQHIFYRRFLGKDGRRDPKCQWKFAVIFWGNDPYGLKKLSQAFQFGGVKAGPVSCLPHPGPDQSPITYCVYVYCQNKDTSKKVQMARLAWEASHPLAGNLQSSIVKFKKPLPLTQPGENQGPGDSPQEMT
An asterisk follows results filed as active; ? = inconclusive; · = no result given. Rows were taken by chance. Share with any hit: about 4.3%.

SMILES | AF4-AF9 inh | Calb FLC | Vif A3G | T cruzi repl | RanGTP-Imp inh | Beta cell apopt | Bfl-1 A1 inh | LANA-H2B inh
O=C(Nc1ccccc1)N1CC=C(c2ccc(F)cc2)CC1 | · | -22 | 6% | 23 | 0.8 | 4 | -1.5 | 11
O=C(CC1(O)C(=O)N(Cc2cccc3ccccc23)c2ccccc21)c1cccnc1 (stereo not given) | · | -12 | 0% | 16 | -0.1 | -1 | 0.0 | 3.5
Cc1ccc(-c2nc3cc(N)ccc3o2)cc1 | · | ? | 30% | 3 | 21* | -6 | -6.5 | 1.8
COc1cccc(C2C=C(Nc3ccccc3)C(=O)N2c2ccccc2)c1 (stereo not given) | -1.1 | 9 | · | 23 | 0.9 | -18 | 0.1 | -3.3
CCCCCN(C(=O)CCC(=O)OCC(=O)c1c(C)cc(C)cc1C)c1c(N)n(CCCC)c(=O)[nH]c1=O | -5.7 | 15 | 0% | 12 | -0.9 | -1 | 0.3 | 0.6
O=C(CN1C(=O)NC2(CCCCCC2)C1=O)N1CCN(S(=O)(=O)c2ccccc2)CC1 | -1.0 | -9 | ? | 11 | 2.5 | 0 | 1.3 | 0.7
CCOC(=O)Cc1csc(NC(=O)c2ccc(Br)o2)n1 | · | -6 | 0% | 6 | -2.1 | -2 | -2.0 | 0.5
CCCCOc1ccc(-c2nnn(C(C)C(=O)OCC)n2)cc1 (stereo not given) | · | 3 | 8% | 3 | 91* | · | 0.3 | -0.5
Cc1ccc(-c2nnc(SCC(=O)Nc3nccs3)n2N)cc1 | · | -5 | 6% | 9 | 6.2 | -6 | 0.4 | -1.1
O=C(O)C1CCCN1C(=O)OCc1ccccc1 (stereo not given) | · | -5 | -4% | 0 | -2.4 | -2 | 1.2 | 3.0
COc1cc(NC(=O)CN(C)S(=O)(=O)c2ccc3c(c2)CCC(=O)N3)cc(OC)c1 | 4.9 | -7 | -3% | -1 | 6.1 | 3 | 0.4 | 8.7
COc1ccc(N2CCN(C(=O)c3cc4c(-c5ccc(Cl)cc5)nn(C)c4s3)CC2)cc1 | -5.6 | 9 | 8% | 33 | 0.2 | 13 | -0.1 | 2.2
Cc1ccc(NC(=S)NNc2ccc(C(=O)O)cc2[N+](=O)[O-])cc1C | 8.7 | 44 | · | -5 | -0.6 | 9 | 0.5 | -3.3
O=C(NNC(=O)c1cc2ccccc2o1)c1ccncc1 | 4.5 | · | 3% | · | · | -2 | -0.4 | 5.6
c1ccc(-c2c[n+]3c(n2-c2ccccc2)SCC3)cc1 | -5.0 | 1 | · | 55* | 4.7 | 24 | -2.1 | -1.7
Cc1cccc2c1N(C(=O)CN1C(=O)c3ccccc3C1=O)C(C)(C)c1ssc(=S)c1-2 | · | 2 | -2% | 6 | -2.2 | -3 | -1.0 | 0.5
COc1ccc2c(c1)c(=O)c(C(=O)c1ccc(Cl)cc1)cn2CC(=O)Nc1ccc(F)cc1 | -0.9 | -8 | -3% | 1 | 2.2 | · | -0.8 | -6.9
Cc1ccc(C(NC(N)=O)c2ccccc2)cc1 (stereo not given) | · | -15 | 3% | -10 | -0.7 | 4 | -1.8 | -5.4
COC(=O)C1CCN(C(=O)Cn2nnc(-c3ccccc3)n2)CC1 | -1.2 | 6 | · | -4 | -2.2 | -1 | 0.3 | -2.0
Cc1ccc([N+](=O)[O-])c(NC2OC(CO)C(O)C2O)c1 (stereo not given) | -1.7 | -10 | ? | -9 | 4.5 | -1 | 0.4 | -1.9
COCCn1c(C)c(C(=O)O)sc1=S | · | -4 | 29% | 2 | 5.5 | -5 | -0.1 | -2.5
CCOC(=O)c1c(NCCN(C)C)c2ccccc2[nH]c1=O | 1.8 | 8 | 4% | -10 | -2.2 | -5 | 1.3 | 1.0
O=C(CCCCCN1C(=O)c2cccc3cccc(c23)C1=O)NC1CCS(=O)(=O)C1 (stereo not given) | 4.3 | 6 | · | 5 | -1.9 | -2 | 0.3 | 1.9
O=C1CCCCC1Sc1ccc(Cl)cc1[N+](=O)[O-] (stereo not given) | -2.6 | -3 | · | -5 | 1.9 | -9 | -0.1 | -2.8
Cc1cc(-n2cnnn2)cc(C)c1S(=O)(=O)NCCOc1ccccc1 | 0.5 | 1 | · | -6 | -1.6 | · | · | ·
O=Cc1ccc(-c2cc(Cl)ccc2Cl)[nH]1 | 0.8 | 13 | · | -12 | -3.0 | -11 | 1.4 | -4.1
CSCc1ccc(C(=O)NC2CC(C)(C)Cc3c2cnn3-c2ccc(F)cc2)o1 (stereo not given) | 2.3 | -4 | · | -3 | -3.3 | 5 | 0.6 | 4.3
O=[N+]([O-])/C(C(Cl)=C(Cl)Cl)=C(\Nc1ccc(F)cc1)n1cncn1 | · | 10 | 1% | -9 | -1.3 | 0 | -0.5 | -5.1
COC(=O)c1ccc(NC(=O)CN2CCN(c3ccccn3)CC2)cc1 | -2.5 | 15 | 0% | -3 | 8.5 | 0 | 0.5 | -1.8
Cc1csc(NC(=O)CCCNC(=O)c2ccc(Cl)cc2)n1 | -0.4 | · | -7% | · | · | 1 | 0.5 | 3.4
CC(NC(=O)COC(=O)/C=C/c1ccco1)c1ccccc1 (stereo not given) | -0.5 | -5 | 2% | -2 | -4.6 | -1 | 0.2 | 3.9
Cn1c(=O)c2c(SCC(=O)N3CCCC3)nc(CC(C)(C)C)nc2n(C)c1=O | -1.4 | -8 | 10% | 22 | 1.2 | -2 | -0.8 | 2.4
N[C@H](CSCc1ccccc1)C(=O)Nc1ccc([N+](=O)[O-])cc1 | 1.0 | -5 | -3% | 0 | 1.1 | · | 0.3 | -6.2
CCOC(=O)c1c(NC(=S)NCC2CCCO2)sc(C)c1C (stereo not given) | -2.2 | 85* | · | 1 | 7.4 | · | -0.9 | -5.5
CCc1cc(=O)oc2cc(OCc3nn[nH]n3)ccc12 | 1.3 | -3 | -2% | -4 | -2.8 | -1 | -0.5 | -2.7
CCCCC/C=N\NC(=O)Cc1ccc([N+](=O)[O-])cc1 | -7.5 | -1 | ? | 0 | -1.4 | 4 | -0.2 | 1.6
CCOC(=O)c1ccc(N/C=C\C(=O)c2cccc(OC)c2)cc1 | · | 34 | -7% | -5 | 1.4 | -4 | -11 | -5.2
COc1ccc(N2C(=NC(=O)C3CCCCC3)SC3CS(=O)(=O)CC32)cc1 (stereo not given) | 0.2 | 16 | · | -6 | 0.4 | -1 | 1.7 | 0.0
CCn1c(SCC(=O)O)nc2sc3c(c2c1=O)CCC3 | · | -20 | 33% | -4 | -0.6 | -2 | -0.1 | 0.4
COc1cc2c(cc1OC)[C@H](Cc1ccc(O)cc1)NCC2 | -2.3 | -12 | 21% | 19 | -1.9 | -1 | -1.3 | 2.0
Cc1c(NC(=O)C2(C)CCCCC2)c(=O)n(-c2ccccc2)n1C | · | 3 | -3% | -18 | 3.2 | -5 | 0.0 | -3.6
O=C(CC1C(=O)NCCN1Cc1ccc(Cl)c(F)c1)NCC1CCOCC1 (stereo not given) | -7.0 | -9 | 10% | -2 | -3.7 | -5 | 0.8 | 2.2
Nc1ccc(S(=O)(=O)N2CCCc3ccccc32)cc1 | 8.1 | -3 | 4% | 13 | -2.2 | · | 1.7 | -2.2
Fc1cccc(NC(=S)NCc2ccccn2)c1 | 7.5 | -1 | · | -7 | 1.2 | -10 | 0.3 | -0.3
Cc1cc(NC(=O)CCOc2ccc(F)cc2)no1 | · | -19 | -5% | -1 | -1.2 | · | · | ·
COc1ccccc1N1CCN(C(=O)NC23CC4CC(CC(C4)C2)C3)CC1 | -1.1 | -10 | 4% | 9 | 0.0 | -9 | 0.7 | -1.7
O=C(NC(c1ccccc1)c1ccccc1)N1CCN(CCO)CC1 | · | -12 | -5% | -10 | -4.4 | -4 | -0.1 | -0.5
Cc1c(N2C(=O)CS/C2=N\N=C\c2ccc(Cl)cc2)c(=O)n(-c2ccccc2)n1C | · | 9 | 12% | -4 | · | -2 | -0.5 | -0.1
CS(=O)(=O)N(CC(=O)Nc1ccccc1C(=O)N1CCOCC1)c1cccc(F)c1 | -2.9 | 0 | -1% | -18 | -0.6 | -3 | -0.3 | 1.3
O=C(COc1ccc2c(C(F)(F)F)cc(=O)oc2c1)NCc1cccs1 | -0.4 | 3 | 15% | -15 | 3.7 | -1 | 0.3 | 1.3
Cc1nc(-c2nnc(SCC(=O)Nc3cc(C(F)(F)F)cc(C(F)(F)F)c3)n2C)cs1 | 0.7 | -20 | -4% | 13 | 3.0 | 4 | 0.1 | -2.1
O=C(Nc1ccc(F)c(F)c1)c1ccc(F)c(S(=O)(=O)N2CCC3(CC2)OCCO3)c1 | -0.7 | 26 | 3% | 10 | 8.7 | 11 | 0.1 | 0.6
Cc1n[nH]c(=O)c2c(NC(=O)COC(=O)c3cc(F)cc(F)c3)oc(C)c12 | -7.6 | 0 | -1% | 0 | -1.3 | 2 | 1.3 | -4.0
Cc1ccc(N2CC(=O)Nc3c(sc4nc(C)cc(C)c34)C2=O)cc1 | -2.3 | -2 | -21% | 9 | -3.5 | -2 | 0.0 | -7.7
COC(=O)C1=C(C)Nc2ncnn2C1c1ccc(OCc2ccccc2)cc1 (stereo not given) | · | 0 | 4% | -11 | -0.5 | -1 | 0.7 | 7.6
COc1ccc(OC)c(C(=O)N2CCC(CCC(=O)NC3CC3)CC2)c1 | -1.1 | 7 | · | 2 | -1.0 | -1 | -0.9 | -0.7
CC1CCC(C(C)C)C(OCC(O)CN2CCOCC2)C1 (stereo not given) | 3.7 | 20 | 2% | -12 | -1.8 | -7 | 0.4 | -8.6
Cc1ccc(NC(=O)C2=C(c3ccccc3)S(=O)(=O)CCS2(=O)=O)cc1 | -1.7 | 17 | 17% | 58* | -5.0 | ? | 2.2 | -0.7
COC(=O)C1=C(C)OC(N)=C(C#N)C1c1cc(OC)ccc1OC (stereo not given) | · | -3 | 2% | -1 | -2.6 | -2 | 0.6 | -12
CCOCCCNC(=S)N1C2CCC1CC(NC(=O)Nc1ccc(C(=O)OCC)cc1)C2 (stereo not given) | 0.6 | -19 | · | 2 | -1.2 | 2 | -0.7 | -7.9

Next section
SMILES | AF4-AF9 inh | Calb FLC | Vif A3G | T cruzi repl | RanGTP-Imp inh | Beta cell apopt | Bfl-1 A1 inh | LANA-H2B inh
Cc1ccc(CC2C(=O)N(c3cc(C)ccc3C)C(=O)C2C)cc1 (stereo not given) | 0.5 | 14 | · | -2 | -3.2 | · | 0.0 | -3.9
Cc1ccc(S(=O)(=O)n2nc(OC(=O)C3CCCCC3)cc2N)cc1 | · | 7 | 2% | 0 | 6.2 | -3 | 0.5 | -2.7
CCO[C@@H]1OC(C(=O)N2CCCCCCC2)=C[C@H](C2CCCCC2)[C@H]1CCCO | -2.4 | 10 | 2% | 9 | ? | · | -0.7 | -3.6
CC(CN1CCOCC1)OC(=O)c1ccc(C(C)(C)C)cc1 (stereo not given) | -0.9 | -16 | 0% | 4 | 3.6 | 0 | -0.5 | 2.2
